# High-throughput results from PubChem.
# RE007 growth inh – less growth of the S. pombe RE007 Vpr strain; Potency, µM (highest dose often 92.2 µM), inactives show at the top dose activity change, negative = less growth; S. pombe RE007 Vpr strain, BacTiter-Glo ATP luminescence, 24 h; control for the full effect not named in the record; AID 651644; actives 0.21% (n = 360,000); active = well fitted falling curve with a large enough effect; inconclusive = small, poorly fitted or top-dose-only effect; inactive = no such curve, though single readings can be large or run the other way;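 note: % is set by controls: 0 for no effect and ±100 for the full control effect; nearly all actives have a fitted effect of over 50% in size; the assay follows cell death caused by Vpr and the record does not say whether a fall means rescue or toxicity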
#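 Fission yeast strain RE007, carrying one chromosomally integrated HIV-1 vpr copy, was seeded at OD 0.01 in PMG+AL medium with 23 nL pinned compound. After 24 h at 30 °C and 99% humidity, viability was read by BacTiter-Glo luminescence.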
# SARS PLP yeast – SARS-CoV PLP inhibition in yeast; AID 485353; S. cerevisiae expressing SARS-CoV PLpro, growth rescue; control for the full effect not named in the record; actives 0.19% (n = 330,000); Potency, µM (highest dose often 32.9 µM), inactives show at the top dose activity, positive = growth rescue; active means well fitted rising curve with a large enough effect; inconclusive means small, poorly fitted or top-dose-only effect; inactive means no such curve, though single readings can be large or run the other way; note: 0% is about no effect; nearly all actives have a fitted effect of over 55% in size; growth read by luminescence after 48 h
# NS1 inh – influenza NS1 inhibition; S. cerevisiae slowed by influenza A NS1, growth recovery by OD600; Potency, µM (highest dose often 46.1 µM), inactives show at the top dose activity, positive = more growth; actives 0.4% (n = 270,000); active means well fitted rising curve with a large enough effect; inconclusive means small, poorly fitted or top-dose-only effect; inactive means no such curve, though single readings can be large or run the other way; note: nearly all actives have a fitted effect of over 50% in size
#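 In this qHTS, NS1 from influenza A is expressed in budding yeast, where it slows growth. Cells are switched from glucose to 2% galactose medium (pH 6.0, -URA), treated with compound, and growth recovery is read at OD600.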
# Cruzain inh Det – inhibitors of Trypanosoma cruzi cruzain with detergent; P25779; purified cruzain, Z-FR-AMC fluorescence, 0.01% Triton; Potency, µM, inactives show max response, negative = inhibition, usual class: inhibitors; actives 0.43% (n = 200,000);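 note: plate controls were neutral wells for no effect and buffer without enzyme for full effect; nearly all actives have a fitted effect of over 40% in size; top concentration of the series not given in the record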
# Target sequence (P25779 123-467 limits assumed): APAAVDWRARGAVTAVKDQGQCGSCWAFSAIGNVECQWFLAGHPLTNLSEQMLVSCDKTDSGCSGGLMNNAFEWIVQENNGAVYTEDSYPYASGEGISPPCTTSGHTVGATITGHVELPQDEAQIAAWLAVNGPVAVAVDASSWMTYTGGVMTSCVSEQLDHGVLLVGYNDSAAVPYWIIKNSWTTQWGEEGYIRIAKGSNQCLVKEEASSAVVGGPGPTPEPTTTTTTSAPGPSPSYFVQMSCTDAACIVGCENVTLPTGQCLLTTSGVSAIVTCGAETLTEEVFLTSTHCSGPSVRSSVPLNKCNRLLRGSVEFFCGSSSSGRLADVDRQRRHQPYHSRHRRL
#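 Sodium acetate buffer (100 mM, pH 5.5) containing 5 mM DTT and 0.01% Triton X-100 hosted 1.5 nM cruzain and test compound for 15 min at room temperature. Cleavage of 2 uM Z-FR-AMC was then tracked by fluorescence.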
# Marburg entry inh – Marburg virus entry inhibition; Marburg virus pseudotyped entry inhibition, cell reporter; control for the full effect not named in the record; about a third of the inactives were read at about 46 µM; Potency, µM (series often up to 37.8 µM), for the others: top-dose activity change, negative = inhibition, most hits filed as inhibitors; actives 1.8% (n = 300,000); active = well fitted inhibition curve with a large enough effect; inconclusive = small, poorly fitted or top-dose-only effect, or effect the other way; inactive = flat fitted curve, though single readings scatter; tested in HEK293 cells; about a fifth of its hits are not listed in these tables; note: % is set by controls: 0 for no effect and ±100 for the full control effect; luciferase read-out
# Cruzain inh noDet – inhibitors of Trypanosoma cruzi cruzain without detergent; purified cruzain, Z-FR-AMC fluorescence, no detergent; Potency, µM, without a hit: max response, negative = inhibition, most hits filed as inhibitors; actives 2.3% (n = 200,000);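 note: plate controls were enzyme without inhibitor for no effect and buffer without enzyme for full effect; nearly all actives have a fitted effect of over 40% in size; top concentration of the series not given in the record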
#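 Detergent-free condition (0.00005% Triton X-100) in acetate buffer pH 5.5 with DTT. 1.5 nM enzyme and compound were pre-mixed 15 min, then 2 uM Z-FR-AMC substrate added; reaction progress from fluorescence change between first and third reads (60 s).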
# StopGo reporter – lowers the luciferase signal of an FMDV 2A StopGo reporter; human cells with a luciferase reporter of 2A StopGo recoding; control for the full effect not named in the record; Potency, µM (series often up to 57.9 µM), inactives show at the highest dose signal change, negative = less light; actives 1.2% (n = 410,000); active = well fitted falling curve with a large enough effect; inconclusive = small, poorly fitted or top-dose-only effect; inactive = no such curve, though single readings can be large or run the other way; tested in HEK293T cells; note: % is set by controls: 0 for no effect and ±100 for the full control effect; nearly all actives have a fitted effect of over 45% in size; luciferase light after 4 h
# Lassa entry inh – blocks Lassa virus binding to or entry into cells | actives 1.2% (n = 300,000) | Potency, µM (series often up to 37.9 µM), for the others: at the highest dose activity change, negative = inhibition, actives largely listed as inhibitors | Lassa virus pseudotype entry inhibition, cell reporter; control for the full effect not named in the record; active means well fitted inhibition curve with a large enough effect; inconclusive means small, poorly fitted or top-dose-only effect, or effect the other way; inactive means flat fitted curve, though single readings scatter; tested in HEK293 cells; note: % is set by controls: 0 for no effect and ±100 for the full control effect; nearly all actives have a fitted effect of over 50% in size; luciferase read-out
# * marks the source's active call; other numbers are inactive results; ? = inconclusive; . = no result given; & = joins results of further samples; [ ] = another dose, or the depositor's remark. Unless noted, calls come from the whole dose curve; as a rule, active = well fitted curve in the direction sought with a large enough effect; inconclusive = small, poorly fitted or top-dose-only effect, or another doubt; inactive = no such curve, though single readings can be large; an effect the other way counts as inactive or inconclusive. Potency is the fitted concentration of half-maximal effect. This is a random part of the collection; overall some 4.7% were active at least once.
SMILES,RE007 growth inh,SARS PLP yeast,NS1 inh,Cruzain inh Det,Marburg entry inh,Cruzain inh noDet,StopGo reporter,Lassa entry inh
CCc1cc(=O)oc2c3c(c(Cl)cc12)OCN(Cc1cccc(OC)c1)C3,.,.,.,-8.1%,26%[46.1 µM],?,16%,8%[46.1 µM]
Cc1nc2ccccc2n1C(=O)c1ccccc1[N+](=O)[O-],4%,-2%,-2%,-5.6%,11%,2%,-14%,1%
O=C(Nc1nccs1)c1cn2ccccc2n1,2%,-2%,-5%,.,.,.,3%,.
Cc1ccc(S(=O)(=O)N2CCCCC2)cc1NC(=O)CSc1ncn[nH]1,-8%,-1%,.,.,?,.,-14%,-26%[46.1 µM]
CCCN1C2CCCC1CC(NC(=O)c1ccccc1Br)C2 (stereo not given),-20%,2%,4%,.,?,.,1%,19%
CCCCn1c(NC(=S)Nc2ccccc2)nc2ccccc21,11%,-41%,-2%,1.8%,?,?,-12%,?
C[C@@H](CN1CCC(Cc2ccccc2)CC1)[C@@H](O)c1ccc(O)cc1,3%[18.4 µM],.,-10%,-7.7%&0.2%,?,2%&1%,-21%&-18%,?
O=C(NC(=S)Nc1ccc(Cc2ccncc2)cc1)c1ccccc1Cl,-4%,17%,9%,-6.9%,?,5%,-11%,1%
O=C(N/N=C/c1cccc([N+](=O)[O-])c1)c1cccc2cc[nH]c12,31%,-4%,.,.,30%[46.1 µM],.,-8%,6%
COC(=O)C1=C(N)Oc2cc(C)n(CC3CCCO3)c(=O)c2C1c1ccccc1 (stereo not given),10%,-1%,-5%,2.7%,-1%,4%,-6%,-6%
CS(=O)(=O)c1ccc(C(=O)N2CCN(Cc3ccccc3)CC2)cc1,2%,0%,.,.,20%[46.1 µM],.,-10%,-9%
CCOC(=O)CC1C(=O)NCCN1S(=O)(=O)c1ccc(C)cc1 (stereo not given),-21%,-1%,.,.,1%[46.1 µM],.,8%,-2%[46.1 µM]
Nc1c(S(=O)(=O)c2cccc(Cl)c2)c2nc3ccccc3nc2n1CCN1CCOCC1,13%,-4%,-35%,-11%,-11%&-11%,19%,52%[activator],-2%
CCOC(=O)c1ccc(N2C(=O)CC(C3CCCO3)C2=O)cc1 (stereo not given),4%,-6%,?,1.8%,11%,-6%,22%,0%
Cc1ccc(N(CC(=O)NCC2CCCO2)S(C)(=O)=O)cc1Cl (stereo not given),-10%,7%,-5%,3.0%,-2%,-7%,.,0%
COc1ccc2nc(C)cc(SCC(=O)N/N=C/c3ccc(O)c(O)c3)c2c1,-1%,14%,.,.,?,.,?,-6%[46.1 µM]
CCOC(=O)c1ccccc1NC(=O)CSc1nc2ccncc2[nH]1,-6%,1%,-4%,-9.6%,2%&2%[46.1 µM],-8%,-5%&-20%,16%[46.1 µM]
CC1CC(C)(C)NCCNC(C)CC(C)(C)NCCN1 (stereo not given),-1%,-2%,10%,1.7%,1%,-5%,-14%,-6%
O=C(CSc1nnc(-c2ccc(F)cc2)c2ccccc12)Nc1ccccc1,8%,.,2%,-4.7%,0%,32µM*,2%,-11%
COC(=O)c1cc2sc(Cl)cc2n1CC(=O)Nc1ccc(OC)c(OC)c1OC,8%,0%,-8%,-2.2%,?,?,1%,-13%
CCOC(=O)N1CCN(C(=O)c2cc(COc3cccc(C(C)=O)c3)on2)CC1,-2%,-3%,-41%,.,-11%,.,-19%,2%
FC(F)(F)c1cccc(NC(=S)NCC(c2cccnc2)N2CCOCC2)c1 (stereo not given),-2%,-1%,1%,1.2%,?,0%,-10%,-6%
O=C(CC(c1ccccc1)c1ccccc1)N1CCN(c2ccccn2)CC1,17%,0%,0%,.,?,.,?,-17%
COc1ccc(C(O)(C2CCCCC2)C(CN2CCOCC2)c2ccccc2)cc1 (stereo not given),-2%,-3%,-11%,.,.,.,-10%,.
O=C(CC(Cc1ccccc1)c1ccco1)NCc1ccco1 (stereo not given),15%,-2%,-5%,.,26%,.,-12%,7%
CCC(=O)Nc1ccccc1C(=O)N1CCN(Cc2ccccc2)CC1,-7%,0%,10%,1.2%,-3%[46.1 µM],-2%,-20%,0%
Cn1c(=O)c2c(nc(CN3CCN(c4ccccc4F)CC3)n2CCCc2ccccc2)n(C)c1=O,-2%,.,.,.,-3%,.,?,-2%
O=C(NCCCN1CCCC1=O)c1cc2c(s1)CCCCC2,8%,2%,-4%,.,.,.,43%[activator],.
COc1ccc(NC(=O)CSCC(=O)N(C)CCOc2ccc(Cl)cc2)cc1,-19%,-3%,.,.,3%,.,1%,-4%
CSc1ccccc1NC(=O)c1cc(S(=O)(=O)N(C)C)ccc1N1CCCC1,-5%,1%,16%,.,-2%,.,-25%,-10%
COCCNC(=O)[C@@H]1CCCN1C(=O)C1CCN(S(=O)(=O)c2ccc(C)cc2)CC1,9%,-3%,0%,.,?,.,1%,22%[46.1 µM]
O=C1c2ccccc2C(=O)N1Cc1nc(-c2ccncc2)no1,-1%,-1%,-16%,2.9%,15%,2%,5%,1%
Cc1csc(NC(=O)c2ccc3c(=O)n4c(nc3c2)CCCCC4)n1,-1%,-18%,-11%,-6.9%,.,5%,3%,.
CC(C)CCNC(=O)NC(=O)COC(=O)/C=C/c1cnc2ccccc2n1,-5%,15%,1%,-3.3%,?,-26%,2%,13%
CCc1nc2ccccc2n1CCCCOc1cccc(C)c1,.,.,.,-8.1%,-13%[46.1 µM],-1%,0%,0%[46.1 µM]
CCOC(=O)CCNC(=O)CCc1nnc(CCCc2ccccc2)o1,-7%,0%,3%,.,4%[46.1 µM],.,37%[activator],19%[46.1 µM]
COc1ccc(-c2nnc(SC(=O)N3c4ccccc4Sc4ccccc43)o2)cc1,-21%,-1%,-88%,-1.0%,?,32µM*,.,?
CCc1nnc(NC(=O)c2cccc(S(=O)(=O)N(C)c3ccc(OC)cc3)c2)s1,5%,3%,-15%,.,-5%[14.2 µM],.,?,?
CCCCCCN1C=CC(=C2C(=O)c3ccccc3C2=O)C=C1,-14%,0%,9%,.,.,.,-74%,.
CCOC(=O)C1CCN(S(=O)(=O)c2ccc(N3CCCCS3(=O)=O)cc2)CC1,.,.,.,-0.2%,.,5%,?,-2%[46.1 µM]
C=CCC1(CC=C)CCCN1C(=O)CC1C(=O)NCCN1Cc1ccccc1OC (stereo not given),0%,0%,-1%,.,-19%[46.1 µM],.,-9%,-21%
CCCCCCCC(=O)N/N=C(/C)c1c(O)cc(C)oc1=O,-3%,1%,-17%,-0.2%,-8%,-3%,-17%,-14%
O=C(NNc1cccc(Cl)n1)c1c(F)cccc1F,3%,-3%,.,.,-11%[46.1 µM],.,-8%,0%
COC(=O)c1ccccc1NC(=O)CCCS(=O)(=O)c1nc(-c2ccccc2OC)cc(C(F)(F)F)n1,.,.,.,-1.5%,-1%[46.1 µM],0%,-15%,5%[46.1 µM]
COc1ccc(C(C)=O)cc1COC(=O)c1ccc(C)c(S(=O)(=O)N2CCOCC2)c1,1%,-2%,.,.,?,.,-17%,-24%
COc1ccccc1CNC(=O)Cn1c(=O)oc2cc(Cl)ccc21,11%,-4%,-4%,.,0%[46.1 µM],.,13%,-11%[46.1 µM]
CCOc1ccc(CC(=O)Nc2cc(=O)n(C)c(=O)n2C)cc1,-3%,0%,.,.,-9%,.,4%,4%
C=CCn1c(SCC(=O)Nc2cccc3ccccc23)nc(O)c(CC)c1=O,-7%,4%,13%,-8.0%,?,-6%,-8%,-12%
CCOc1cccc(CC(=O)NCc2ccc3c(c2)CCN3C(=O)c2cccc(C)c2)c1OCC,.,.,.,4.0%,?,?,14µM*,11µM*
COc1ccc(CNC(=O)CN2C(=O)NC3(CCCCCCC3)C2=O)cc1,7%,-4%,.,.,?,.,-24%,?
c1ccc(N2CCN(c3nc(-c4cccs4)nc4ccccc34)CC2)cc1,-23%,-14%,24%,-5.5%,?,?,?,-1%
CCOC(=O)CSc1cc(C)nc2ccc(OC)cc12,-3%,0%,-3%,.,-4%[46.1 µM],.,-11%,5%
O=C(NCCC1=CCCCC1)c1coc(=O)c(Br)c1,-12%,-2%,-7%,0.0%,5%,0%,-25%,-12%
OC(CC1CC12c1ccccc1-c1ncccc12)(c1ccccc1)c1ccccc1 (stereo not given),-1%,-26%,-93%,1.3%,?,8%,.,-32%
CCNc1nc(Cl)nc(N(NC(C)=O)C(C)CC)n1 (stereo not given),10%,-1%,4%,5.3%,?,-2%,0%,3%
O=C(Cn1c(=O)n2nc(-c3cccc(F)c3)nc2c2ccccc21)N1CCN(c2ccc(F)cc2)CC1,.,.,.,-0.1%,.,14%,-15%,9%[46.1 µM]
COc1ccc(-n2c(SC3CCOC3=O)nc3ccccc3c2=O)cc1Cl (stereo not given),4%,2%,.,.,-14%,.,5%,-19%
O=C(NCC(=O)N1CCN(C(=O)c2ccco2)CC1)c1ccc(Br)cc1,0%,-10%,-2%,.,-3%[46.1 µM],.,-11%,-14%
Cc1nc2ccc(C(=O)NCc3ccc4c(c3)OCO4)cc2s1,10%,-4%,-36%,.,.,.,22%,.
CC(=O)Nc1ccc2c(c1)nc1n2CCOC1,10%,-1%,-1%,6.0%,22%,7%,15%,?
# Other results follow:
SMILES,RE007 growth inh,SARS PLP yeast,NS1 inh,Cruzain inh Det,Marburg entry inh,Cruzain inh noDet,StopGo reporter,Lassa entry inh
CC1(C)CC(=O)C=C(NNC(=O)c2ccccc2)C1,-13%,-5%,21%,-3.7%,12%,9%,-14%,8%
O=C(NCc1cccnc1)C1CCN(S(=O)(=O)N2CCC3(CC2)OCCO3)CC1,2%,3%,-4%,-1.6%,0%,-10%,.,-4%
CC1CCCN(c2ccc(C(=O)OCC(=O)N3c4ccccc4Sc4ccccc43)cc2[N+](=O)[O-])C1 (stereo not given),-13%,-1%,26%,-3.5%,?,4µM*,-7%,1%
CN1Cc2cccc3c2C(Cc2ccccc2S3)C1 (stereo not given),-18%,-13%,-10%,-1.6%,?,5%,-2%,-4%
